E coli growth: E. coli growth inhibition, primary screen, OD600; Escherichia coli growth, 23 h; stronger effect = lower value; OD600 absorbance (test concentration not listed); 0.21% of 330,000 active;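 active = OD600 absorbance below the run mean of sample wells minus 3.6 SD, in any replicate, cut at about 0.56 in these data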;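 note: stock transfer was 300 nL into about 60 µL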
HNF4A DNA FP: change in binding of human HNF4A to DNA, primary screen, biochemical, fluorescence polarization, FITC-DNA; AID 1224865, 2016; Hepatocyte nuclear factor 4-alpha (Homo sapiens), P41235; 1 h; activity change, % at 10 µM; 0.3% of 360,000 active; in the data active = activity change above about 30%, passing the limit was not always enough;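 note: controls were the assay level and a saturating level of protein; the project sought stronger binding though the title names inhibitors; some compounds called inactive have numbers as strong as hits; positive values seem to mean higher polarization but the record does not say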
Target sequence (P41235 whole entry, looked up): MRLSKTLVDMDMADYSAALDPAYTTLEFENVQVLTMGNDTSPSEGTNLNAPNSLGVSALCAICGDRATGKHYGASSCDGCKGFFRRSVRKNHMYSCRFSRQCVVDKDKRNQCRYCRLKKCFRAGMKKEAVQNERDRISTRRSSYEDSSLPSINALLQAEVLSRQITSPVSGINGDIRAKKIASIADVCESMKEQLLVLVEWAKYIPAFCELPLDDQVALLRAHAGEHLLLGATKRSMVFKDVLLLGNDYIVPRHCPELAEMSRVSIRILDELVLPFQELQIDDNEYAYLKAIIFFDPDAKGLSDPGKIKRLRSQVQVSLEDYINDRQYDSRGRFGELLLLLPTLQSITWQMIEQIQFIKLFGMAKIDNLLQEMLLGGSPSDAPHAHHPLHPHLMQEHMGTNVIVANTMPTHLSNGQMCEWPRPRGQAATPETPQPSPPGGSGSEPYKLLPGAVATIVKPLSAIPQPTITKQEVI
FGF22 binding: binders of human FGF22 protein, primary screen, FGF22 synaptogenesis inhibitor project, biophysical, thermal shift, single point. recombinant FGF22 thermal shift, SYPRO orange fluorescence; percent of sucrose octasulfate shift, DMSO zero. calls only at 9.99 µM. 1.5% of 340,000 active;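 active = melting point raised past a set limit in the mean and every replicate; three in four hits are not shown here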
UCH37 DUB inh: inhibitors of human UCH37 deubiquitinase, primary screen, biochemical, Ub-AMC cleavage, fluorescence | Ubiquitin carboxyl-terminal hydrolase isozyme L5 (Homo sapiens), Q9Y5K5 | 0.33% of 330,000 active | AID 588478, 2011 | purified proteasome/UCH37 | inhibition, % (no concentration beside the values);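 active = mean of two replicates above 20%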;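 note: 0% = compound-free wells with enzyme and 100% = wells lacking proteasome; stock transfer was 100 nL into about 20 µL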
Target sequence (Q9Y5K5 whole entry, looked up): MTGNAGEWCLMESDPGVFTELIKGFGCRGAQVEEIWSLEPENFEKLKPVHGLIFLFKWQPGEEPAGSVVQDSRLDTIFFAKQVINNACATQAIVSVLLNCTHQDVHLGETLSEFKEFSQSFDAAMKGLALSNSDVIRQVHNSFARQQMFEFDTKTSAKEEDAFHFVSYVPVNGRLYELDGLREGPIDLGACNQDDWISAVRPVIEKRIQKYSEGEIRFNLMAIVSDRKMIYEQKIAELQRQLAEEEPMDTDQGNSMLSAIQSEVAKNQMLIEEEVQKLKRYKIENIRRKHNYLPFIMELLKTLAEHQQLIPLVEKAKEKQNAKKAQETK
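Material: Human UCH37 enzyme supplied as purified proteasome complex | Schedule: 30 min preincubation with enzyme, 25 min cleavage at room temperature | Detection: AMC fluorescence 355/460 nm | Measure: % inhibition of Ub-AMC cleavage fluorescence | Controls: Wells without proteasome as full block, compound-free enzyme plus substrate as uninhibited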
Ecoli rRNA inh: reduced GFP signal of wild-type E. coli, primary screen, bacterial rRNA inhibitor project, GFP/RFP fluorescence, OD600, single point. GFP signal change (wild-type ribosome), % (concentration not given with the values). 1.6% of 350,000 active. AID 720706, 2013. E. coli WT GFP vs humanized-ribosome RFP mutants, 24 h; stronger effect = lower value; DMSO median 0, no signal -100;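 active = significant combined selectivity score with lowered wild-type GFP, culture density cut under 30%, mutant RFP and density less affected; inactive = any of these conditions unmet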; note: one replicate is shown; some compounds called inactive have numbers as strong as hits
Beta2AR agonist: beta2AR agonists driving receptor internalization, primary screen, cell-based, FAP fluorogen, flow cytometry; 0.43% of 340,000 active; Am2.2-beta2AR cells; reference of the scale not given here; AID 504454, 2011; Beta-2 adrenergic receptor (Homo sapiens), P07550; response, % (no concentration beside the values);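 active = response above a set limit, near 3 SD of response in nonfluorescent compounds, cut at about 42% in these data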;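 note: stock transfer was 100 nL into about 11 µL; a reference agonist was the positive control; negative values mostly stem from fluorescent compounds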
ALR inh: inhibitors of human ALR sulfhydryl oxidase, primary screen, biochemical, H2O2 detection, HRP-luminol luminescence, single point. AID 485317, 2010. inhibition, % (concentration not given with the values). purified ALR, DTT oxidation. 3.8% of 290,000 active;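 active = mean and each replicate at 75% or more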;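 note: stock transfer was 7.5 nL into about 7.5 µL; 0% = neutral wells and 100% = wells with inactivated enzyme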
Target sequence (P55789 whole entry, looked up): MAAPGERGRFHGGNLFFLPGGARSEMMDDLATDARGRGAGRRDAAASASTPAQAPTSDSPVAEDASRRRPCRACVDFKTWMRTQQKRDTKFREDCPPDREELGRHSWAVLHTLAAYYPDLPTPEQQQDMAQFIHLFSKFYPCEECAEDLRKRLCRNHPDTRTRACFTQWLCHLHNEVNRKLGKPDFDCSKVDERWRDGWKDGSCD
Ecoli rRNA inh OD600: second read-out of Ecoli rRNA inh, no call of its own (marks repeat the call); OD600 change, %; measured here: OD600 growth;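 optical density of the mix in the first replicate; 0 = DMSO median and -100 = no signal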
Ecoli rRNA inh RFP: further read-out of Ecoli rRNA inh, marked with its call; RFP signal change, %; measured here: RFP humanized mutant strains;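 first replicate; 0 = DMSO median and -100 = no signal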
Numbers without * were called inactive; i = inactive; · = not tested or not shown; & = joins results of further samples. Not all compounds are listed, so the mix of outcomes need not match the whole.

Start of the listing, in advance (two entries):
SMILES	E coli growth	HNF4A DNA FP	FGF22 binding	UCH37 DUB inh	Ecoli rRNA inh	Ecoli rRNA inh OD600	Ecoli rRNA inh RFP	Beta2AR agonist	ALR inh
CCOc1ccc(Br)cc1C(=O)Nc1ccc(C(=O)NCC(C)C)cc1	0.68	3.5	·	-0.2	·	·	·	-5	-3
C[C@H]1CN([C@@H](C)CO)C(=O)Cc2cc(NC(=O)Cc3ccccc3)ccc2O[C@H]1CN(C)C(=O)Nc1cccc2ccccc12	0.72	5.9	i	1.3	-3&-1	-10&2	-1.1&7.0	-2	-27

This part in full, from the first entry:
SMILES	E coli growth	HNF4A DNA FP	FGF22 binding	UCH37 DUB inh	Ecoli rRNA inh	Ecoli rRNA inh OD600	Ecoli rRNA inh RFP	Beta2AR agonist	ALR inh
CCOc1ccc(Br)cc1C(=O)Nc1ccc(C(=O)NCC(C)C)cc1	0.68	3.5	·	-0.2	·	·	·	-5	-3
C[C@H]1CN([C@@H](C)CO)C(=O)Cc2cc(NC(=O)Cc3ccccc3)ccc2O[C@H]1CN(C)C(=O)Nc1cccc2ccccc12	0.72	5.9	i	1.3	-3&-1	-10&2	-1.1&7.0	-2	-27
Nc1nonc1-n1nnc(C(=O)N/N=C/C=C/c2ccccc2)c1CSC1=NCCS1	·	5.7	·	·	8	14	1.9	-9	-2
COC(=O)N1CC(C)N(C(=O)OC)CC1C (stereo unspecified)	0.69	-2.5	·	-1.0	·	·	·	0	-21
COc1ccc(-n2nnnc2CNC(=O)c2ccc3ccccc3c2)cc1	0.69	1.8	i	0.9	-4	-4	5.1	2	-3
Cn1cc(S(=O)(=O)NC2CCCCCC2)c(=O)n(C)c1=O	0.68	-1.7	i	-0.2	18	18	-0.5	1	-4
O=c1oc2ccccc2c2nccnc12	0.68	-0.8	·	0.3	·	·	·	8	-7
Cc1ccc(NC(=O)CNCc2ccccc2)c(Br)c1	0.6	0.7	i	0.7	-28*	-21*	-4.6*	4	-1
COc1ccc(S(=O)(=O)Nc2nc3n(n2)C(c2ccc(Cl)cc2)CC(=O)N3)cc1 (stereo unspecified)	0.73	-1.8	·	2.9	·	·	·	2	-31
CC(=O)c1cccc(OCc2cc(C(=O)N(C)CCc3ccccn3)no2)c1	0.71	-1.4	i	1.4	-1	-7	-1.5	4	2
COc1ccccc1CNC(=O)c1cc(C(C)=O)c[nH]1	0.67	-2.4	i	2.7	-1	5	-1.9	-6	·
Cc1ccc(S(=O)(=O)N2CCN(C(=O)CSc3ncc(C(F)(F)F)cc3Cl)CC2)cc1	0.7	-1.2	·	4.0	·	·	·	-11	-3
O=C1CNC(=O)/C1=C\N1CCCCC1	0.72	-1.4	i	5.0	-5	4	-3.9	1	·
CC(NC(=O)c1cccnc1)C(=O)N1CCCCC1 (stereo unspecified)	0.78	-4.0	·	1.4	·	·	·	0	-6
COc1cc(OC)nc(Oc2ccccc2C(=O)Oc2ccc(Cl)cc2)n1	0.63	-0.6	i	2.1	-14	-5	-1.0	-7	5
CCC(C)c1ccc(NC(=O)C2CC2)cc1 (stereo unspecified)	0.69	-2.2	·	3.6	·	·	·	-10	·
O=C(Nc1ccc(-c2nc3cc(Cl)ccc3o2)cc1)C1CCCO1 (stereo unspecified)	0.73	-2.4	·	-31	·	·	·	3	-4
CN(Cc1ccccc1)C(=O)c1[nH]cnc1C(=O)Nc1ccon1	0.69	-2.9	i	0.9	8	9	7.1	-8	-4
O=C(Cn1c(C(=O)NCCCN2CCOCC2)cc2sccc21)c1ccccc1	0.67	-0.4	·	6.9	·	·	·	8	24
CCc1nc(-c2ccccc2O)n(-c2ccccc2)n1	0.75	1.9	·	-1.0	·	·	·	-2	0
CC(=O)c1cc2c(cc1NS(=O)(=O)c1ccc(C)cc1)OCO2	0.76	-1.3	·	-1.5	·	·	·	4	1
Cc1ccc(NC(=O)CN2C(=O)S/C(=C\c3cccn3-c3cccc(C(=O)O)c3)C2=O)c(C)c1	0.7	-22	·	-50	·	·	·	4	·
COc1ccc(CC(=O)NCc2ccc(Cl)cc2)cc1S(=O)(=O)N1CCOCC1	0.71	-0.4	i	-0.1	2	-6	0.2	-5	·
CN(C)Cc1csc(Nc2ccc(C(F)(F)F)cn2)n1	·	3.6	i	·	15	20	-1.5	·	·
COCC(C)NC(=O)COc1nncc2ccccc12 (stereo unspecified)	·	-3.2	i	·	14	13	6.3	1	-18
(listing goes on)
SMILES	E coli growth	HNF4A DNA FP	FGF22 binding	UCH37 DUB inh	Ecoli rRNA inh	Ecoli rRNA inh OD600	Ecoli rRNA inh RFP	Beta2AR agonist	ALR inh
Cc1cc(-c2nnc(SCC(=O)Nc3ccc(C(F)(F)F)cc3)n2C)no1	0.65	-1.6	i	0.8	-6	3	-5.7	-4	-3
Cc1ccc2oc(C(=O)N3CCN(c4cccc(C)n4)CC3)c(C)c2c1	0.64	0.0	i	4.3	-30	-42	-13	-6	·
O=C(c1ccc(CNc2c(N3CCCC3)c(=O)c2=O)cc1)N1CC=C(c2ccccc2)CC1	·	2.9	i	·	-16	-25	-8.0	-3	-1
COCCNC(=O)C(c1cccs1)N(C(=O)Cn1nnc2ccccc21)c1cccc(C(C)=O)c1 (stereo unspecified)	0.7	-1.9	·	3.3	·	·	·	10	5
COc1ccc(-n2cc(CNCCCn3ccnc3)c(-c3ccccc3Cl)n2)cc1	0.64	3.1	i	-1.3	-20	-24	2.3	10	-18
c1ccc(CNc2nc(N3CCN(Cc4ccccc4)CC3)nc3ccccc23)cc1	0.48*	1.8	i	-76	-43*	-31*	4.0*	16	-9
c1cncc(CNc2ccc3c(c2)OCO3)c1	0.69	-2.1	·	-3.3	·	·	·	-8	80*
COc1cccc(Nc2nc(=O)[nH]nc2C)c1	0.72	4.6	·	0.9	·	·	·	3	-5
Cc1cccc(N(CC(=O)N2CCCC2)S(C)(=O)=O)c1	0.71	6.0	i	-0.8	0	4	-1.5	5	-4
Cc1cc(F)ccc1NC(=O)c1ccc(NS(=O)(=O)c2cccs2)cc1	·	2.2	i	·	7	-19	-1.7	·	·
Cc1ccc(S(=O)(=O)N2CCCC(c3nc(-c4ccc(C)o4)no3)C2)cc1 (stereo unspecified)	0.72	-3.6	·	-1.5	·	·	·	2	3
CCCCN(C(=O)C(C)Oc1ccc(Cl)cc1)c1c(N)n(CCCC)c(=O)[nH]c1=O (stereo unspecified)	·	3.1	i	·	5	-2	-0.1	-2	-17
CC1=C(C(=O)N2CCCC(C(=O)c3cccc(C(F)(F)F)c3)C2)OCCO1 (stereo unspecified)	0.69	-1.4	i	1.9	-3	-4	-1.8	-1	-1
O=C(NOC(=O)c1ccccc1)c1ccccc1	0.64	-0.4	i	2.1	-3	0	-4.7	-6	14
O=C(CSc1nc(-c2ccco2)cc(C(F)(F)F)n1)Nc1ccc(C(=O)N2CCCCC2)cc1	0.73	7.0	i	2.4	-1	3	2.8	-23	·
Cc1ccc(-c2[nH]ncc2C(=O)c2ccc(Br)cc2)c(O)c1	0.64	-1.6	i	0.7	5	-36	-10	-8	27
Cc1c(OCC(=O)N2CCC(C(=O)O)CC2)ccc2c3c(c(=O)oc12)CCCC3	0.7	4.5	i	-80	·	·	·	11	16
Cc1nn(-c2ccc(F)cc2)c(Cl)c1/C=C/C(=O)N1CCNC(=O)C1	0.65	0.8	i	4.5	-1	-13	-3.0	0	-4
O=S1(=O)CCC(S(=O)(=O)N2CCCCCC2)C1 (stereo unspecified)	0.72	-0.8	·	3.7	·	·	·	6	-19
COc1cccc(NC(=S)NCCN2CCOCC2)c1	0.71	-2.3	·	0.0	·	·	·	1	-7
CCOC(=O)Cc1cnc(NC(=O)Cn2nnc(-c3ccc(OCC)cc3)n2)s1	0.69	2.3	·	1.7	·	·	·	6	·
Cc1ccc2cc(CCNC(=O)c3cccs3)c(=O)[nH]c2c1C	0.7	-2.0	i	5.2	-11	-22	-2.2	-16	26
Fc1ccccc1C(c1nnnn1Cc1ccc2c(c1)OCO2)N1CCN(Cc2ccco2)CC1 (stereo unspecified)	0.68	-1.2	·	6.9	·	·	·	0	-3
CCCCC1=CC2=CC(=O)C(C)(OC(=O)CC)C(=O)C2=CN1CC(C)C (stereo unspecified)	0.68	-2.2	i	1.6	6	11	16	1	-17
CC12CN(C(=O)c3cccc([N+](=O)[O-])c3)C3(C#N)CC1CCC23C (stereo unspecified)	0.71	8.2	i	2.9	27	16	0.3	1	-7

Single records (already shown). Order of values: E coli growth, HNF4A DNA FP, FGF22 binding, UCH37 DUB inh, Ecoli rRNA inh, Ecoli rRNA inh OD600, Ecoli rRNA inh RFP, Beta2AR agonist, ALR inh
O=C(NOC(=O)c1ccccc1)c1ccccc1 is listed as 0.64, -0.4, i, 2.1, -3, 0, -4.7, -6, 14
Cc1c(OCC(=O)N2CCC(C(=O)O)CC2)ccc2c3c(c(=O)oc12)CCCC3 is listed as 0.7, 4.5, i, -80, ·, ·, ·, 11, 16

Next entries follow.
SMILES	E coli growth	HNF4A DNA FP	FGF22 binding	UCH37 DUB inh	Ecoli rRNA inh	Ecoli rRNA inh OD600	Ecoli rRNA inh RFP	Beta2AR agonist	ALR inh
Cc1[nH]n(-c2ncc(-c3ccc(Cl)cc3)s2)c(=O)c1C(c1ccc(Cl)cc1)C(C#N)C#N (stereo unspecified)	0.64	2.2	·	2.3	·	·	·	17	13
[O-][n+]1cc(Cl)cc(Cl)c1	·	-0.8	i	·	17	13	-0.6	·	·
CN1OC[C@@H]2CN(C(=O)CCc3ccccc3)[C@H](c3ccc(-n4ccnc4)cc3)C[C@@H]21	·	1.6	i	·	8	19	1.6	·	·
COc1cc(/C=N/N2CCN(C3c4ccccc4-c4ccccc43)CC2)cc(OC)c1OC	·	-0.3	i	·	16	8	-6.0	2	0
COc1ccc(-n2c(SCC(=O)Nc3ccccc3)nc3c(c2=O)SCC3)cc1	0.73	5.4	i	5.2	-1	4	-2.0	-1	37
C/C(N)=C(/C#N)C(=O)COC(=O)CC1CCCC1	0.71	1.6	·	-0.9	·	·	·	-6	-12
CCN(CC)C(=O)CSc1nnnn1-c1ccc(F)c(Cl)c1	0.68	0.0	i	-0.3	-3	-7	1.8	-15	-13
O=C(NC1=NCCS1)C1CC2CCC1C2 (stereo unspecified)	0.74	-0.3	·	0.6	·	·	·	-26	6
O=C(N/N=C/c1ccc(Cl)s1)c1ccccc1[N+](=O)[O-]	·	-1.4	i	·	2	4	-1.6	1	4
OC1c2cc(Cl)ccc2-c2c(Cl)cc(Cl)cc21 (stereo unspecified)	0.69	4.8	i	4.2	-53	-67	-12	-13	·
CC(C)c1ccc(-n2nnnc2SCc2nc(N)nc(N)n2)cc1	·	-1.4	i	·	20	17	5.1	·	·
COc1cccc(C(=O)NCC(=O)NCc2cc(=O)n(C)c(=O)n2C)c1	0.65	2.5	i	0.5	22	8	3.0	5	-31
Cc1c(NC(=O)c2csc3c2CCCC3)c(=O)n(-c2ccccc2)n1C	0.66	-0.3	·	2.5	-53	-75	-16	1	·
Cc1noc(C)c1S(=O)(=O)N(C)C[C@H]1Oc2ccc(NC(=O)CCC(F)(F)F)cc2C(=O)N([C@H](C)CO)C[C@@H]1C	·	-1.1	i	2.4	13	0	-11	1	5

Source: PubChem BioAssay (several laboratories)
